Bioassay records from PubChem BioAssay.
GIV Gai3 FP = blocks GIV peptide binding to rat Galpha-i3. P08753. Galpha-i3/FITC-GIV peptide fluorescence polarization, 90 min; hits give low values; scaled: aluminum fluoride 0%, vehicle 100%. percent of control (FP), % (no concentration beside the values). actives 0.42% (n = 210,000). AID 1224905;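 active = replicate mean at 85% of control or lower, very high polarization wells dropped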;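 also: wells of about 15 µL received 100 nL stock; the first replicate is given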
Target sequence (P08753 whole entry, looked up): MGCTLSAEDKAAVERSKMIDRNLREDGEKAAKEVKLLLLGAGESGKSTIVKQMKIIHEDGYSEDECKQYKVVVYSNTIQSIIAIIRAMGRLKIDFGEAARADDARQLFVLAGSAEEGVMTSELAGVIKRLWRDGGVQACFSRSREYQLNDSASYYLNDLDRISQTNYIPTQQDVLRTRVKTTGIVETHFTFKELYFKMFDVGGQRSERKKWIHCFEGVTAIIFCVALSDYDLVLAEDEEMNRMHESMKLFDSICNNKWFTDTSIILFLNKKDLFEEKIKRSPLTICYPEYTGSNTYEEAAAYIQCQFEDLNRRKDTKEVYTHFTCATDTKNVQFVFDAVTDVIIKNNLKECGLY
HCMV NEC inh = disrupts HCMV UL50-UL53 complex binding; HTRF UL50-UL53 interaction, normalized percent inhibition; inhibition, % (test concentration not listed); actives 0.15% (n = 190,000); AID 1918969;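 active = both replicates at 50% or more, plus weaker picks with an unusually low signal ratio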;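 also: stock transfer was 100 nL into about 20 µL; 0% = negative control wells and 100% = wells with untagged competitor protein; inactives centre near -12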
Sa growth 42C = S. aureus growth inhibition; S. aureus RN4220 growth, OD600, 20 h, 42 °C; hits give low values; relative growth, % (no concentration beside the values); actives 0.53% (n = 170,000); AID 720641;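 active = growth at 42 °C up to 50% and 20 or more points under that at 30 °C, or under 10% at both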;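 also: 300 nL library stock went into each well; scaled to the means of positive and negative controls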
Sa growth 42C second temp = second read-out of Sa growth 42C, no call of its own (marks repeat the call); relative growth, %; measured here: growth at 30 °C;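 optical density after 20 h as mean of two plates; 100% = untreated growth and lower means inhibition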
Active calls of the source: *; / = no result given; & = joins results of further samples.

SMILES	GIV Gai3 FP	HCMV NEC inh	Sa growth 42C	Sa growth 42C second temp
CC1CCC2C(C1)c1sc(=O)[nH]c1SC2(C)C (stereo not drawn)	/	-19	51	82
COC(=O)c1sc(=S)n(-c2cccc(OC)c2)c1N	104	-18	84	78
COCC(C)n1c(COc2ccccc2F)nnc1SCc1nnc(-c2ccccc2)o1 (stereo not drawn)	/	-4	84	95
Cc1cccc(N2CCN(CCNC(=O)C3COc4ccccc4C3)CC2)c1C (stereo not drawn)	105	/	113	102
Cc1c(C(=O)NCCC2=CCCCC2)sc2ncnc(N3CCCCC3C)c12 (stereo not drawn)	102	/	93	89
CSc1ncc(C(=O)Nc2ccc3c(c2)OCCO3)n1-c1ccccc1	/	-30	93	84
CCOC(=O)c1c(NC(=O)c2ccccc2)oc2cccnc12	105	7	/	/
Cc1ccc(S(=O)(=O)N(CC(N)=O)CC(O)Cn2c3ccccc3c3ccccc32)cc1 (stereo not drawn)	103	2	128	101
Cc1ccc(C2CC(c3ccc(NS(C)(=O)=O)cc3)=NN2C(=O)CCC(=O)O)cc1 (stereo not drawn)	98	-62	/	/
Cc1cccc(-c2noc(-c3ccccc3OCC(=O)Nc3ccc([N+](=O)[O-])cc3)n2)c1	96	-16	95	89
CCOC(=O)Cn1c(=O)oc2cc(S(=O)(=O)N(CC)CC)ccc21	106	1	117	90
O=C(Cn1c(=O)n(CC(=O)NC2CCCC2)c(=O)c2ccccc21)Nc1cccc(F)c1	105	-2	110	92
C=CCOC(=O)C1=C(C)NC(C)=C(C(=O)OCC=C)C1c1ccc(C)cc1	105	3	/	/
CCCN(CC(=O)Nc1ccc(F)c(F)c1F)C(=O)/C=C/c1nc2ccccc2o1	/	-35	90	85
COc1nsnc1N1CCOCC1	105	/	86	98
CCN(CC)C(=O)c1sc(NC(=O)c2cc(-c3ccccc3)nc3ccccc23)c(C(=O)OC)c1C	103	-9	/	/
CCCCNC(=O)CSc1nnc(-c2cccnc2)o1	106	8	/	/
Cc1csc(C2C(N)=NC(S)=C(C#N)C23CCCCC3)n1 (stereo not drawn)	/	-25	82	82
Cc1ccc(C)c(-c2nc(Cn3c(=O)cc(-c4ccccc4)c4c(C)nn(C)c43)c(C)o2)c1	105	/	94	102
COc1ccccc1Cn1c(=S)[nH]c2cc(C(=O)N3CCC4(CC3)OCCO4)ccc2c1=O	103	/	109	88
Cc1nnc2c(SCc3ccccc3Cl)nc3ccccc3n12	103	-38	/	/
CCc1nn(CC(=O)N2CCN(c3cccc(C(F)(F)F)c3)CC2)c(=O)c2cccn12	108	18	87	88
CCc1nc(SCC(=O)Nc2nncs2)n[nH]1	100	-14	/	/
CCOC(=O)c1c(NC(=O)c2ccc(Cl)c([N+](=O)[O-])c2)sc(C(=O)Nc2ccccc2F)c1C	104	1	/	/
O=C(/C=C/c1ccco1)NC(=S)N1CCNC(=O)C1CC(=O)OCC1CCCO1 (stereo not drawn)	113	-30	96	89
O=C1CN(C(=O)CSCc2c(F)cccc2Cl)c2ccccc2N1	90	-22	81	71
O=C(Cn1cc(SCc2ccccc2F)c2ccccc21)N1CCCCC1	103	/	124	91
Cc1c(C(=O)Nc2ccc(F)cc2F)oc2ccc3c(c12)C(=O)CC(C)(C)O3	119	/	99	93
Cc1ccc(C(=O)CCC(=O)O)s1	106	-9	78	90
N#Cc1cc2c(=O)n3ccccc3nc2n(Cc2cccnc2)c1=O	117	-89	97	85
CCNC(=S)N1CC=C(c2ccccc2)CC1	100	-7	71	82
O=S(=O)(c1cccc(F)c1)N1CCC2(CC1)Nc1cc(F)ccc1-n1cccc12	100	-13	/	/
COc1cc(CNc2ccc3[nH]c(=O)[nH]c3c2)ccc1OCC(N)=O	105	8	105	96
O=C1c2ccccc2-c2nnc(-c3ccc(Cl)cc3)cc21	99	-21	102	97
Cc1cc(=O)oc(C)c1C(=O)NCCN(C)Cc1ccccc1	98	/	106	84
COc1ccccc1CNC(=O)C1(C)COc2c(oc3ccccc23)C(=O)N1CCCc1ccccc1 (stereo not drawn)	107	-13	/	/
CCOC(=O)C(C)Oc1ccc2c(-c3ccccc3)cc(=O)oc2c1 (stereo not drawn)	100	-41	98	81
COc1ccc(S(=O)(=O)N(C(=O)Oc2ccccc2)c2ccc3oc(=O)sc3c2)cc1OC	100	/	113	96
Cc1cc2ccccc2n1-c1ccc(C(=O)NC2CCCC2)s1	108	56*	100	102
O=C(O)/C(=C\c1cccc(C(F)(F)F)c1)Sc1nnc(-c2ccco2)o1	/	-35	44	41
COc1ccc(-c2csc(NC(=O)CSc3nnc(C)c(=O)[nH]3)n2)cc1	100	-25	/	/
N#CCCN(Cc1cccs1)S(=O)(=O)c1ccc(-c2ccccn2)s1	104	9	96	96
O=C(COC(=O)C1CCN(c2ccc(C(F)(F)F)cn2)CC1)Nc1ccc(C(F)(F)F)cc1	/	-15	112	83
CC(NC(=O)Cc1c[nH]c2ccccc12)C(=O)O (stereo not drawn)	/	4	85	102
COc1ccc(-c2cc(C(=O)Nc3ccccc3F)nn2C2CCS(=O)(=O)C2)cc1 (stereo not drawn)	108	-4	/	/
Cc1ccc(S(=O)(=O)Nc2nc3ccccc3nc2NCc2ccco2)cc1C	104	-36	88	89
CC(CNS(=O)(=O)c1ccc(-c2ccc(=O)[nH]n2)o1)c1ccccc1 (stereo not drawn)	110	-55	95	98
Clc1ccccc1Oc1nc2ccccc2nc1N1CCOCC1	109	10	/	/
Cc1cc(OCC(=O)Nc2nc3c(s2)CCCC3)cc(C)c1Cl	99	-21	108	91
Cc1[nH]c2ccccc2c1C(=O)c1sc(Nc2ccccc2)nc1N	110	11	/	/
S=C1NCN(Cc2ccccc2)CN1c1ccccc1	105	-23	95	88
O=C1COc2cc(S(=O)(=O)CCC(=O)N3CCc4ccccc43)ccc2N1	107	/	101	87
COc1cc(Cl)c(C)cc1NC(=O)C1CSC2(C)CCC(=O)N12 (stereo not drawn)	/	8	107	94
NC(=O)CSc1ccc(F)cc1	/	4	65	94
CCOc1ccccc1CNC(=O)c1nc(N2CCOCC2)c2ccccc2n1	103	-34	/	/
O=C1NCCCC1C(=O)N1CCc2ccccc21 (stereo not drawn)	105	10	89	92
COc1cc(Cn2c(=O)sc3ccccc32)ccc1OC(C)C	101	-8	92	100
Cc1cc(C)n(C2=NCCN2S(=O)(=O)c2cc(C(F)(F)F)cc(C(F)(F)F)c2)n1	106	-23	106	94
CS(=O)(=O)NCC(c1cccs1)N1CCc2ccccc21 (stereo not drawn)	97	-28	78	85
O=C(CN1CCN(Cc2cccc(Cl)c2)C1=O)N1CCC(Cc2ccccc2)CC1	103	-32	/	/

3 of these compounds, reformatted.
Cc1ccc(C2CC(c3ccc(NS(C)(=O)=O)cc3)=NN2C(=O)CCC(=O)O)cc1 (stereo not drawn)
  GIV Gai3 FP = 98
  HCMV NEC inh = -62
  Sa growth 42C = /
  Sa growth 42C second temp = /

CCOC(=O)c1c(NC(=O)c2ccc(Cl)c([N+](=O)[O-])c2)sc(C(=O)Nc2ccccc2F)c1C
  GIV Gai3 FP = 104
  HCMV NEC inh = 1
  Sa growth 42C = /
  Sa growth 42C second temp = /

CCCN(CC(=O)Nc1ccc(F)c(F)c1F)C(=O)/C=C/c1nc2ccccc2o1
  GIV Gai3 FP = /
  HCMV NEC inh = -35
  Sa growth 42C = 90
  Sa growth 42C second temp = 85

New compounds follow
SMILES	GIV Gai3 FP	HCMV NEC inh	Sa growth 42C	Sa growth 42C second temp
COC(=O)c1ccccc1NC(=O)c1ccc2c(c1)OCCO2	102	-15	/	/
Cc1ccc(Cn2c(=N)n(CC(=O)c3ccco3)c3ccccc32)cc1	105	-2	94	82
CC(=O)N1C(C(=O)O)Cc2c([nH]c3ccccc23)C1(C)C (stereo not drawn)	/	1	103	108
O=[N+]([O-])c1c(Nc2ccc(Br)cc2)cc(N2CCOCC2)c2nonc12	103	-28	/	/
CCOc1ccc(CNC(=O)COc2cc(=O)n(C)c3ccccc23)cc1	108	-27	101	91
OCc1nc2ccccc2n1C/C=C/c1ccccc1	/	-8	115	82
O=C(Nc1nc2ccccc2[nH]1)c1cccc(S(=O)(=O)N2CCCC2)c1	/	-22	90	74
CCOC(=O)c1c(C)[nH]c(C)c1S(=O)(=O)N1CCCC(C(=O)NCc2ccc(C)cc2)C1 (stereo not drawn)	97	/	98	80
Cc1ccc(S(=O)(=O)c2nccn3nc(-c4ccc(Cl)cc4)cc23)cc1	107	-11	/	/
C[N+](C)(C)CCCCCCCCCC[N+](C)(C)C	103&108	-19&-26&-10&-2&-27	99&92	89&89
CCN(CC)c1ccc(/C=c2\sc3nc(-c4ccco4)nn3c2=O)cc1	-83*	-14	105	78
Cc1cccc(NC(=O)CSc2nnc3[nH]c(=O)cc(C)n23)c1C	94	/	114	81
Cc1ccc(-c2noc(COc3ccc(Br)c(C)c3)n2)cc1	99	5	104	104
CC(=O)NC(C)c1nc(-c2cccc(C)c2)no1 (stereo not drawn)	99	15	/	/
Cc1[nH]c(=O)c(C#N)c2c1CCCC2	/	12	116	103
O/N=C1/c2ccccc2/C(=N/O)C1c1ccc(Cl)cc1	101	-22	124	62
CCOC(=O)C1=CN(C(C)C)C=C(C(=O)OCC)C1c1ccccc1Br	99	/	96	102
Cc1ccc(Nc2n[nH]nc2C(=O)Nc2ccc(C(C)C)cc2)cc1	107	-20	/	/
Oc1ccc(C(Nc2cccnc2)Sc2ccc(Cl)cc2)cc1 (stereo not drawn)	/	13	90	54
CCCOc1cccc(-c2nc3ccccc3c(=O)o2)c1	101	-15	93	63
c1cncc(-c2nc3c4c5c(sc4ncn3n2)CCCC5)c1	101	/	97	82
CCOc1nc2c(c(C)nn2-c2ccc(C)cc2)c(C)c1CCC(=O)NC1CCCC1	104	-23	/	/
COc1ccc(Br)cc1CNC(=O)C(C)n1nc(C)n2c(cc3occc32)c1=O (stereo not drawn)	102	-21	112	97
CC1CN(C(=O)C(C)NS(=O)(=O)c2cccc(Cl)c2)CC(C)O1 (stereo not drawn)	108	-9	92	101
CCc1ccc(C(=O)COC(=O)c2cnc(C)cn2)cc1	/	8	99	95
CCCCN(CC)C(=O)c1cc2cccnc2n(Cc2ccccc2)c1=O	103	2	/	/
CCNCC(=O)Nc1ccc(NC(C)=O)cc1	/	-2	81	97
C=CCN1C(=O)/C(=c2\sc3nc(-c4cc(OC)c(OC)c(OC)c4)nn3c2=O)c2ccccc21	102	-14	102	86
COc1ccc(CNC(=O)c2cccc(-n3cnc4cccnc43)c2C)cc1	105	/	122	89
Cc1cc(N2CCN(c3ccc(F)cc3)CC2)n2cnnc2n1	103&106	3&-1	93	93

One compound at a time (already shown):
Shown for `CCNCC(=O)Nc1ccc(NC(C)=O)cc1` → GIV Gai3 FP = /; HCMV NEC inh = -2; Sa growth 42C = 81; Sa growth 42C second temp = 97
Shown for `CCOc1nc2c(c(C)nn2-c2ccc(C)cc2)c(C)c1CCC(=O)NC1CCCC1` → GIV Gai3 FP = 104; HCMV NEC inh = -23; Sa growth 42C = /; Sa growth 42C second temp = /

Other results.
SMILES	GIV Gai3 FP	HCMV NEC inh	Sa growth 42C	Sa growth 42C second temp
Cc1cccc(NC(=O)c2cccc3c2C(=O)N(CC2CCCO2)C3)c1C (stereo not drawn)	106	10	85	91
CCn1nccc1C1CCCN1S(=O)(=O)c1ccc(C)cc1 (stereo not drawn)	103	-11	/	/
O=C1CSc2cc(S(=O)(=O)N3CC=C(c4ccccc4)CC3)ccc2N1	97	/	82	88
CSc1ccc(CCNC(=O)c2csc3c2CCCCC3)cc1	98	-21	98	85
CC1CCN(CC(=O)O)CC1	105	-5	113	93
COc1ccc2c(c1)oc(=O)c1ccccc12	/	7	92	87
CC(=O)NC(C)c1nc2ccccc2n1CC(=O)Nc1ccc(C(C)C)cc1 (stereo not drawn)	/	-13	123	89
CC(C)NC(=O)c1ncn2c1C(=O)N(C1CC1)C(C)(C(=O)NC1CCCC1)C2 (stereo not drawn)	110	-2	/	/
CCn1c(=O)c(CCC(=O)Nc2cccc(CN3CCCC3)c2)nc2c(C)nn(-c3ccccc3)c21	105	-60	/	/
CCCNC1=CC(=O)C(NCCC)=CC1=O	100	-166	99	86
CC1(C)S[C@@H]2[C@H](NC(=O)[C@H](NC(=O)N3CCNC3=O)c3ccccc3)C(=O)N2C1C(=O)O (stereo partly drawn)	/	-42	-1.3*	-0.7*
Cc1cc(CN2c3cccc4cccc(c34)S2(=O)=O)no1	/	-40	112	90
CC(Sc1nnc(-c2cccnc2)o1)C(=O)N1CCc2ccccc21 (stereo not drawn)	104	14	/	/
O=C(N1CCOc2ccccc21)n1ccnc1	102	/	83	88
CCC(=O)Nc1cc2nc3[nH]c(=O)n(C4CCCCCC4)c(=O)c3nc2cc1C	101	/	107	88
COc1ccc(C2CC(=O)C3=C(C2)Nc2ccccc2NC3c2cccc(Br)c2)cc1 (stereo not drawn)	102	-12	/	/
CC(C)(C)c1ccc(S(=O)(=O)NC(=O)c2cccc(Oc3cccc(C(F)(F)F)c3)n2)cc1	/	-7	106	54
COc1ccccc1NC(=O)Nc1ccccc1SCc1cc(=O)n2cc(Cl)ccc2n1	105	-66	/	/

At a glance, some entries already given:
SMILES	GIV Gai3 FP	HCMV NEC inh	Sa growth 42C	Sa growth 42C second temp
COc1ccc(C2CC(=O)C3=C(C2)Nc2ccccc2NC3c2cccc(Br)c2)cc1 (stereo not drawn)	102	-12	/	/
CC(C)(C)c1ccc(S(=O)(=O)NC(=O)c2cccc(Oc3cccc(C(F)(F)F)c3)n2)cc1	/	-7	106	54
COc1ccccc1NC(=O)Nc1ccccc1SCc1cc(=O)n2cc(Cl)ccc2n1	105	-66	/	/
